From PubChem BioAssay
RanGTP-Impb inh: inhibitors of RanGTP-importin-beta interaction, primary screen, biochemical, FRET, CFP-Ran, YFP-importin-beta, homogeneous. AID 2216, 2009. Ran GTPase (GTP-bound) - importin-beta complex. 300,000 compounds, 1.1% hits. inhibition, % (test concentration not listed). cell-free CFP-Ran/YFP-importin-beta FRET ratio;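 active means most replicates above 15%; inconclusive means exactly half above 15%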;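 further: 0% = DMSO wells and 100% = Ran loaded with GDP instead of GTP; wells of about 40 µL received 100 nL stock; the first replicate is given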
Vif A3G: inhibitors of Vif binding to APOBEC3G peptide, primary screen, biochemical, TR-FRET, GST-Vif 1-94, biotin-A3G peptide, dose response retest (AID 1117319); inhibition, %; hits with a dose series show IC50 in µM; 260,000 compounds, 0.57% hits; TR-FRET GST-Vif / biotin-A3G peptide binding; higher % means a stronger effect; test concentration not given here; strong numbers were not always called active;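 active means above the screen mean plus three standard deviations and confirmed in dose response; inconclusive means results disagree or hit not tested in dose response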;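 further: Vif residues 1-94 fused to GST binding biotinylated APOBEC3G peptide 110-148; 0% = full assay without inhibitor and 100% = GST in place of GST-Vif; retest series ran down from 100 µM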
Beta2AR agonist: beta2AR agonists driving receptor internalization, primary screen, cell-based, FAP fluorogen, flow cytometry | Am2.2-beta2AR cells; reference of the scale not given here | AID 504454, 2011 | 340,000 compounds, 0.43% hits | response, % (test concentration not listed);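 active means response above a set limit, near 3 SD of response in nonfluorescent compounds, cut at about 42% in these data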;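 further: stock transfer was 100 nL into about 11 µL; a reference agonist was the positive control; negative values mostly stem from fluorescent compounds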
Target sequence (P07550 whole entry, looked up): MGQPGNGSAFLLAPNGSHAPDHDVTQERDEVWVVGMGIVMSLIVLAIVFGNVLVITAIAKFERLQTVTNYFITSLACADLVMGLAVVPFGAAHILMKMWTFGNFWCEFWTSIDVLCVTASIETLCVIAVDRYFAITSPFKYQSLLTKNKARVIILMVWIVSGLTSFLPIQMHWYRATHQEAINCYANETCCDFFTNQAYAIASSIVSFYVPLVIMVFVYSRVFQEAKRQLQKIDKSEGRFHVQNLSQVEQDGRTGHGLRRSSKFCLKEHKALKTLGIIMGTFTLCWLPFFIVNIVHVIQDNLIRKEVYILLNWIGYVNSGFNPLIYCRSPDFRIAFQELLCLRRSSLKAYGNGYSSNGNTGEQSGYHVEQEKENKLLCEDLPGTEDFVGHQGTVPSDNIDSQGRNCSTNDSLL
Calb FLC: C. albicans growth inhibition with fluconazole, primary screen, CaCi-2 strain, Alamar Blue fluorescence; C. albicans CaCi-2 (fluconazole-resistant clinical isolate) + fluconazole, 48 h; AID 1979, 2009; growth inhibition, % (test concentration not listed); 300,000 compounds, 0.57% hits;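 active means most replicates above 75%; inconclusive means exactly half above 75%; inactive means most below 75%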;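 further: all wells also contain fluconazole at 8 µg/ml as a sub-toxic cotreatment; 0% = median of DMSO wells and 100% = median of geldanamycin control wells; wells of about 8 µL received 7.5 nL stock; the first replicate is given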
HNF4A DNA FP: change in binding of human HNF4A to DNA, primary screen, biochemical, fluorescence polarization, FITC-DNA | 1 h | activity change, % at 10 µM | 360,000 compounds, 0.3% hits | Hepatocyte nuclear factor 4-alpha (Homo sapiens), P41235; in the data active means activity change above about 30%, passing the limit was not always enough;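 further: controls were the assay level and a saturating level of protein; the project sought stronger binding though the title names inhibitors; some compounds called inactive have numbers as strong as hits; positive values seem to mean higher polarization but the record does not say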
ALR H2O2 inh: inhibitors of human ALR sulfhydryl oxidase, primary screen, biochemical, H2O2 detection, HRP-luminol luminescence, single point | FAD-linked sulfhydryl oxidase ALR (Homo sapiens), P55789 | purified ALR, DTT oxidation | inhibition, % (concentration not given with the values) | 290,000 compounds, 3.8% hits;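 active means mean and each replicate at 75% or more; inconclusive means only one of the two met; inactive means neither met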;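 further: stock transfer was 7.5 nL into about 7.5 µL; 0% = neutral wells and 100% = wells with inactivated enzyme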
Target sequence (P55789 whole entry, looked up): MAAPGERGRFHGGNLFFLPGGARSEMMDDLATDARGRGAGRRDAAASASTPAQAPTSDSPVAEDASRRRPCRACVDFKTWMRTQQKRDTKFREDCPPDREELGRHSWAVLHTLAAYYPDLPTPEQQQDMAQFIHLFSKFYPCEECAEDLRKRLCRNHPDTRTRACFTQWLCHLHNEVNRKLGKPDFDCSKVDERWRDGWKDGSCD
LANA-H2B inh: blockers of LANA interaction with H2A/H2B – biochemical, FP readout, HTS, primary screen; AID 2629, 2010; inhibition, % (no concentration beside the values); cell-free LANA-H2A/H2B peptide, fluorescence polarization; 320,000 compounds, 0.6% hits; Protein LANA1 (Human herpesvirus 8 type P (isolate GK18)), Q9QR71; in the data active means inhibition mostly above about 10%, no sharp cut-off; inactive means mostly below about 6.7%;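 further: stock transfer was 7.5 nL into about 10 µL; 0% = median of vehicle wells and 100% = median of positive control wells; one replicate is shown; the record names a cut of 25% in any replicate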
Numbers without * were called inactive; u = inconclusive; x = not tested or not shown.

Each structure is followed by: RanGTP-Impb inh	Vif A3G	Beta2AR agonist	Calb FLC	HNF4A DNA FP	ALR H2O2 inh	LANA-H2B inh
O=C(O)c1ccccc1C(=O)c1ccc2c(c1)N(Cc1ccc(Cl)c(Cl)c1)C(=O)CO2
    u	x	11.3	10.4	-1.2	-6.6	2.5
O=C(O)c1cccc(NCc2cccnc2)c1
    4.0	10.3%	2.5	-6.6	-0.7	-70.5	3.0
O=C(COc1cccnc1[N+](=O)[O-])c1ccc(Cl)s1
    -0.3	x	-3.6	-4.4	-8.1	-11.6	0.3
Cc1ccc(C(=O)N/C(=C\c2ccco2)C(=O)NCCN2CCCCC2)cc1C
    10.2	x	2.3	-3.0	-0.6	5.9	1.0
CCOC(=O)c1cc(C)[nH]c1C
    -0.4	-15.4%	3.8	4.0	-0.8	2.1	0.2
N#CCc1ccc(OC(=O)c2cccnc2)cc1
    1.9	2.6%	-8.5	1.6	-0.4	0.0	0.2
CN(C)C(=S)Nc1ccc([N+](=O)[O-])cc1
    2.5	-3.9%	-2.4	0.9	4.0	-6.9	4.5
COc1ccc(OC(C)C(=O)N(C)Cc2nc(-c3ccccc3)no2)cc1 (stereo not given)
    1.9	x	2.1	-1.8	1.1	-17.1	2.9
COC(=O)c1ccc(NC(=O)CSCC(=O)OCC(=O)c2ccc(Br)cc2)cc1
    -1.8	-6.7%	-2.0	4.7	-2.4	99.5*	-1.3
Cc1ccc2cc3cc(C(=O)N4CCN(Cc5ccccc5)CC4)sc3nc2c1
    11.1	-1.2%	4.3	-3.3	0.0	x	0.7
COC(=O)[C@@]12CCCN1[C@H](c1ccc(-c3ccc4c(c3)OCO4)cc1)[C@H]1C(=O)N(C)C(=O)[C@H]12
    x	x	-5.4	x	-2.4	-45.2	6.8
CCOC(=O)N1CCN(C(=O)c2cccn3c(=O)c4sccc4nc23)CC1
    x	-6.5%	-1.0	x	2.6	-1.7	3.3
CC(Sc1nnc(N)s1)C(=O)c1c(N)n(C)c(=O)n(C)c1=O (stereo not given)
    x	-3.8%	-3.2	x	-0.9	x	x
CC(=O)N1[C@H](C)C=C[C@]1(Cc1ccccc1)C(=O)NCCN1CCOCC1
    -0.4	x	2.7	-6.8	7.7	-1.1	1.9
O=C(Nc1cc([N+](=O)[O-])ccc1F)C1CCN(S(=O)(=O)c2cccs2)CC1
    x	-2.5%	6.8	x	4.2	-0.1	-3.8
COc1ccccc1NC(=O)CCC(=O)OCc1ccc([N+](=O)[O-])cc1
    -0.9	4.9%	-0.1	9.6	-2.5	-5.8	2.2
Cn1c(SCC(=O)NC2CCS(=O)(=O)C2)nnc1-c1ccco1 (stereo not given)
    x	-3.1%	1.5	x	3.2	3.1	0.7
CCCc1nc(SCC(=O)c2ccc(OC)cc2)c2ccccc2n1
    2.5	-5.8%	-9.3	15.7	-2.7	89.6*	-7.5
O=C(O)c1c(-c2ccccc2)c(-c2ccccc2)nc2ccccc12
    0.5	-7.7%	-1.0	27.4	3.5	0.9	0.8
CCCCNC(=O)[C@H]1C[C@H]1[C@@H](O)[C@H](CO)NC(=O)[C@H](Cc1ccccc1)NC(=O)OC(C)(C)C
    0.9	x	1.2	-3.6	4.0	0.2	-5.3
O=C(OCC(=O)N1CCCCC1)c1ccc(OC(F)(F)F)cc1
    x	-11.1%	-7.5	x	-1.0	-5.6	2.2
Cc1cnc(C(=O)Nc2cccc(S(=O)(=O)N(C)C)c2)cn1
    6.1	12.9%	-0.9	-2.5	1.4	-5.5	1.8
O=C(COC(=O)/C=C/c1ccc(F)cc1)NCc1ccc2c(c1)OCO2
    x	-0.9%	-2.5	x	6.5	2.3	4.5
O=C1c2ccccc2C(=O)N1Cc1ccccn1
    -1.0	7.1%	5.2	-0.6	0.8	1.5	0.9
CS(=O)(=O)N(CC(=O)N1CCc2ccccc2C1)c1cccc(F)c1
    1.3	-2.9%	-3.5	-3.9	2.7	1.2	-2.9
O=C(c1ccc([N+](=O)[O-])cc1)N1CCOC12CCN(c1ncc(C(F)(F)F)cc1Cl)CC2
    0.1	22.3%	-2.4	-4.3	3.0	-0.4	1.3
CC1CCN(S(=O)(=O)c2ccc(C(=O)Nc3nnc(C4=COCCO4)o3)cc2)CC1
    1.1	-4.2%	2.0	-5.0	1.9	6.4	0.4
Cc1ccc(CN2CCN(C3CCOCC3)CC2CCO)cc1 (stereo not given)
    5.2	7.8%	-4.0	6.8	2.1	-13.8	2.4
COc1ccc2[nH]c(=O)c(CN(C(C)=O)C3CCCCC3)cc2c1
    0.1	2.4%	8.9	0.9	5.5	-9.7	2.1
CC1=CC(C)(C)N2C(=O)C3(C(C#N)=C(N)OC4=C3C(=O)CC(C)(C)C4)c3c(C)c(C)cc1c32 (stereo not given)
    4.0	-3.0%	6.8	12.3	-2.3	-20.0	-0.6
COc1ccc(CNC(=O)c2ccc(Cn3nc(C)c([N+](=O)[O-])c3C)o2)cc1
    u	1.2%	-2.9	1.9	-3.0	-0.2	4.6
O=C(COC(=O)c1ccc([N+](=O)[O-])cc1)NC12CC3CC(CC(C3)C1)C2
    x	x	19.1	x	-0.7	-2.2	2.6
CCCn1c2ccccc2c2cnn(CC(=O)NC3CCCCC3C)c(=O)c21 (stereo not given)
    -1.1	x	-4.2	-2.1	1.4	-1.2	-0.5
CCNC(=O)CC1C(=O)N(c2ccc(OC)cc2)C(=S)N1CCc1ccncc1 (stereo not given)
    -3.1	18.1%	-6.2	18.4	-1.8	0.7	-1.8
N#CCCn1cc(/C=C(\C#N)c2nc3ccccc3s2)c(-c2ccc(F)cc2)n1
    u	-7.2%	5.8	-12.9	3.1	-4.0	-1.8
Cc1nc2cc(-c3ccsc3-n3c(C)ccc3C)[nH]n2c(=O)c1Cl
    -11.4	2.92µM*	4.0	24.9	-9.0	43.4	-1.1
COc1ccc(Cl)cc1C(=O)NNC(=O)c1cccnc1
    1.9	11.0%	-12.3	-0.4	3.6	-4.7	2.0
CSc1nc(-c2ccccc2)nc(C(Cl)Cl)n1
    5.1	-5.0%	81.7*	1.5	1.1	0.9	3.4
COc1ccc(/C=C/C(=O)Nc2ccc3nc4n(c(=O)c3c2)CCCC4)cc1
    5.4	7.6%	-5.6	3.7	-1.4	1.1	-0.7
COCCC(=O)N1CCC(n2nccc2NC(=O)CCc2ccccc2)CC1
    1.8	x	3.8	6.6	0.9	-4.6	-1.0
CCOc1ccc(/C=N/NS(=O)(=O)c2ccc(C)cc2)cc1OC
    2.3	x	1.1	0.2	-0.3	48.6	-3.0
O=[N+]([O-])c1cccc(N(CC(O)CN2CCCC2)S(=O)(=O)c2ccccc2)c1 (stereo not given)
    3.3	-4.9%	-0.3	-0.5	-0.1	-2.2	7.0
COc1cc(CN2CCN(Cc3ccc(SC)cc3)CC2)cc(OC)c1O
    -1.6	-0.5%	8.1	6.9	-0.2	-4.6	4.0
Cc1cc(C)n(CCC(=O)N/N=C/c2ccc(Br)c([N+](=O)[O-])c2)n1
    2.7	-4.4%	1.3	-4.0	1.2	-8.4	-3.8
CC(Oc1ccccc1)c1ccnc(N)n1 (stereo not given)
    -1.6	-3.1%	-1.5	3.9	0.8	-10.4	0.8
C=CCn1c(SCC(=O)Nc2ccc(F)cc2)nc2ccccc2c1=O
    -0.9	x	3.0	-16.8	1.1	-8.8	-1.8
CCCN1CCC(=O)N([C@H](CO)Cc2ccccc2)CC1
    -2.5	x	15.9	0.9	6.3	3.0	-2.1
CC(C)Oc1ccc(C(=O)NCCCNC(=O)c2cccnc2)cc1
    0.4	x	2.5	4.2	2.4	-5.5	0.9
O=C1C(Cl)=C(N2CCC(C(=O)O)CC2)C(=O)c2ccccc21
    -2.8	u	7.1	36.3	-2.2	49.6	-0.1
COc1ccc(-c2noc(N3CCC(C(=O)Nc4cc(OC)ccc4OC)CC3)n2)cc1
    1.4	x	21.2	0.2	0.0	4.2	1.8

The listing continues:
Each structure is followed by: RanGTP-Impb inh	Vif A3G	Beta2AR agonist	Calb FLC	HNF4A DNA FP	ALR H2O2 inh	LANA-H2B inh
CC(=O)N1CCN(S(=O)(=O)c2ccc(C)cc2)C1C (stereo not given)
    -2.5	1.1%	9.8	-0.9	0.1	-9.4	-1.2
NNC(=O)CN1C(c2ccc(Br)cc2)=Nc2ccc(Br)cc2C1c1ccccc1 (stereo not given)
    3.6	x	16.0	16.0	-3.0	2.3	-5.8
CCOC(=O)c1cnc2c(-c3ccc(Cl)cc3)c(C)nn2c1N
    1.4	0.6%	-3.6	12.3	-9.4	1.0	7.1
C/C(CCC1CC(C)(C)OC1=O)=N\NC(N)=S (stereo not given)
    -0.7	1.6%	-0.5	-8.8	-0.1	6.0	-5.0
O=C(c1cc(-c2cccc(O)c2)on1)N1CCc2ccccc2C1
    -0.1	-0.3%	0.4	-6.0	-1.1	x	-4.7
O=C(NC(=S)N1CCN(c2ccc([N+](=O)[O-])cc2)CC1)c1ccccc1
    1.6	x	7.0	-19.5	0.4	-2.7	3.1
Cc1ccc(-c2nnc(-n3ncc(C#N)c3N)c3ccccc23)cc1C
    -7.3	x	4.5	-0.8	-0.3	-10.3	5.5
O=C(NC(=S)NCCO)c1cn(-c2ccccc2)nc1-c1ccccc1
    -2.6	20.7%	-9.0	14.3	-3.4	8.6	3.0
COc1ccc(-c2nc(CSCC(=O)NCC3CCCO3)c(C)o2)cc1OC (stereo not given)
    -1.3	26.8%	-1.5	1.0	0.5	98.3*	1.5
Cc1ccc(CN2CCSc3ccc(C(=O)NC4CCN(Cc5ccccc5)CC4)cc32)cc1
    7.7	-105.3%	27.9	2.9	4.0	26.9	2.7
CC(CCc1ccc(O)cc1)N(C)CCc1ccccc1 (stereo not given)
    2.9	u	-5.0	-16.6	5.2	35.6	-5.6
COc1cc(/C=N/NC(=S)Nc2cccnc2)cc(OC)c1OC
    -5.2	u	-3.0	-5.8	2.4	-3.4	-2.3
Cc1cc(C)c2c(c1)/C(=N/NC(=O)c1ccc(O)cc1)CCC2
    0.1	3.5%	-0.9	-5.9	2.1	-1.6	-1.1

Copied from above (five entries):
Each structure is followed by: RanGTP-Impb inh	Vif A3G	Beta2AR agonist	Calb FLC	HNF4A DNA FP	ALR H2O2 inh	LANA-H2B inh
Cc1ccc(-c2nnc(-n3ncc(C#N)c3N)c3ccccc23)cc1C
    -7.3	x	4.5	-0.8	-0.3	-10.3	5.5
O=C(NC(=S)NCCO)c1cn(-c2ccccc2)nc1-c1ccccc1
    -2.6	20.7%	-9.0	14.3	-3.4	8.6	3.0
COc1ccc(-c2nc(CSCC(=O)NCC3CCCO3)c(C)o2)cc1OC (stereo not given)
    -1.3	26.8%	-1.5	1.0	0.5	98.3*	1.5
Cc1ccc(CN2CCSc3ccc(C(=O)NC4CCN(Cc5ccccc5)CC4)cc32)cc1
    7.7	-105.3%	27.9	2.9	4.0	26.9	2.7
CC(CCc1ccc(O)cc1)N(C)CCc1ccccc1 (stereo not given)
    2.9	u	-5.0	-16.6	5.2	35.6	-5.6

Not a hit list; 6.3% or so of the library scored in one or more.
